A1 apoptosis 2: blocks A1, raising caspase activity; MEF A1-2A-BIM cells, caspase-Glo luminescence, 3 h; percent of clofoctol response, DMSO zero; caspase activation, % (test concentration not listed); 24,000 tested, under 10 active; AID 2465; in the data active = caspase activation above about 5.9%;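 also: wells of about 30 µL received 50 nL stock; the first replicate is given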
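Material: mouse embryonic fibroblasts co-expressing A1 and BIM (A1-2A-BIM), primed for A1 dependence / Quantity: 2500 cells/well / Buffer or medium: RPMI-1640 growth medium with 10% FBS / Doses: 50 nL compound per well, pinned / Schedule: 3 h compound exposure at 37 °C / Signal: Caspase-Glo luminescence (DEVD substrate) / Measure: Caspase-3/7 activation, seen as rise in luminescence signal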
* marks the source's active call; other numbers are inactive results. Only part of the results is shown. The share of hits here may be higher or lower than overall.

SMILES	A1 apoptosis 2
COc1ccc(NC(=O)Nc2ccc3c(c2)CC(=O)N([C@H](C)CO)C[C@@H](C)[C@H](CN(C)Cc2ccc(C(F)(F)F)cc2)O3)cc1	-0.2
C[C@@H]1C=C(C(=O)NCc2ccccc2)O[C@H](OCc2ccc(CO)cc2)C1	0.1
Cc1noc(C)c1S(=O)(=O)Nc1ccc2c(c1)C(=O)N([C@@H](C)CO)C[C@H](C)[C@H](CN(C)S(=O)(=O)c1ccccc1)OCCCC[C@H](C)O2	0.0
C[C@H]1CN([C@@H](C)CO)C(=O)c2cccc(NC(=O)Nc3cccc4ccccc34)c2O[C@H]1CN(C)Cc1ccc2c(c1)OCO2	-0.5
C[C@@H]1CCCCO[C@@H](CN(C)C(=O)Nc2cccc3ccccc23)[C@@H](C)CN([C@H](C)CO)C(=O)c2cc(NS(=O)(=O)c3ccc(F)cc3)ccc2O1	0.6
Cc1noc(C)c1S(=O)(=O)N(C)C[C@@H]1OCCCC[C@@H](C)Oc2ccc(NC(=O)Nc3cccc4ccccc34)cc2C(=O)N([C@H](C)CO)C[C@@H]1C	0.0
C[C@@H]1CN([C@H](C)CO)C(=O)c2cc(NS(=O)(=O)c3cn(C)cn3)ccc2O[C@@H](C)CCCCO[C@H]1CN(C)C	-0.1
CCO[C@H]1OC(C(=O)NC2CC2)=C[C@@H](c2coc3ccccc3c2=O)[C@@H]1CCCO	0.7
C[C@@H]1CN([C@H](C)CO)C(=O)Cc2cc(NC(=O)Cc3cn(C)c4ccccc34)ccc2O[C@H]1CN(C)Cc1ccc(C(=O)O)cc1	0.5
C[C@H]1CN([C@@H](C)CO)C(=O)c2cccc(NS(C)(=O)=O)c2O[C@@H]1CN(C)Cc1ccc2c(c1)OCO2	0.1
CNC[C@@H]1OCCCC[C@@H](C)Oc2ccc(NC(=O)Nc3ccc4c(c3)OCO4)cc2C(=O)N([C@@H](C)CO)C[C@H]1C	0.0
C[C@@H]1CN([C@@H](C)CO)C(=O)c2cccc(NS(=O)(=O)c3ccc(F)cc3)c2O[C@@H]1CN(C)Cc1ccc(C(F)(F)F)cc1	0.0
COc1ccc(NC(=O)Nc2ccc3c(c2)C(=O)N([C@@H](C)CO)C[C@H](C)[C@H](CN(C)Cc2ccc(Cl)c(Cl)c2)OCCCC[C@@H](C)O3)cc1	0.7
COc1ccc(S(=O)(=O)Nc2ccc3c(c2)C(=O)N([C@H](C)CO)C[C@H](C)[C@@H](CN(C)Cc2ccccc2)OCCCC[C@H](C)O3)cc1	-0.7
COc1ccc(CN(C)C[C@H]2Oc3ccc(NC(=O)c4ccncc4)cc3C(=O)N([C@@H](C)CO)C[C@@H]2C)cc1	1.3
C[C@H](CO)N1C[C@H](C)[C@H](CN(C)S(=O)(=O)c2ccc(Cl)cc2)Oc2ccc(NC(=O)CCN3CCOCC3)cc2CC1=O	-1.1
COc1cccc(S(=O)(=O)N(C)C[C@H]2OCc3cnnn3CCCC(=O)N([C@H](C)CO)C[C@@H]2C)c1	0.0
CCO[C@H]1OC(C(=O)N2CCOCC2)=C[C@@H](C)[C@@H]1CCCO	0.5
C[C@@H]1CN([C@@H](C)CO)C(=O)c2cccc(NS(=O)(=O)c3ccc(Cl)cc3)c2O[C@H]1CN(C)S(=O)(=O)c1cccs1	-0.1
C[C@@H]1CN([C@@H](C)CO)C(=O)c2cc(NS(C)(=O)=O)ccc2O[C@H]1CN(C)S(=O)(=O)c1ccc(F)cc1	0.3
C[C@H]1CN([C@@H](C)CO)C(=O)c2cccc(NC(=O)c3cnccn3)c2O[C@H]1CN(C)Cc1ccc(Cl)c(Cl)c1	-0.2
C[C@H](CO)N1C[C@H](C)[C@@H](CN(C)Cc2ccc(Cl)c(Cl)c2)Oc2c(NC(=O)C3CC3)cccc2C1=O	-0.8
C[C@H]1CN([C@@H](C)CO)C(=O)Cc2cc(NC(=O)Cn3cnnn3)ccc2O[C@H]1CN(C)C(=O)Nc1cccc2ccccc12	0.9
Cc1ccc(S(=O)(=O)N(C)C[C@@H]2Oc3ccc(NC(=O)c4ccncc4)cc3CC(=O)N([C@@H](C)CO)C[C@@H]2C)cc1	-0.4

Another view of twelve compounds above:
| Structure | A1 apoptosis 2 |
| --- | --- |
| C[C@@H]1CN([C@@H](C)CO)C(=O)c2cccc(NS(=O)(=O)c3ccc(F)cc3)c2O[C@@H]1CN(C)Cc1ccc(C(F)(F)F)cc1 | 0.0 |
| COc1ccc(NC(=O)Nc2ccc3c(c2)C(=O)N([C@@H](C)CO)C[C@H](C)[C@H](CN(C)Cc2ccc(Cl)c(Cl)c2)OCCCC[C@@H](C)O3)cc1 | 0.7 |
| COc1ccc(S(=O)(=O)Nc2ccc3c(c2)C(=O)N([C@H](C)CO)C[C@H](C)[C@@H](CN(C)Cc2ccccc2)OCCCC[C@H](C)O3)cc1 | -0.7 |
| COc1ccc(CN(C)C[C@H]2Oc3ccc(NC(=O)c4ccncc4)cc3C(=O)N([C@@H](C)CO)C[C@@H]2C)cc1 | 1.3 |
| C[C@H](CO)N1C[C@H](C)[C@H](CN(C)S(=O)(=O)c2ccc(Cl)cc2)Oc2ccc(NC(=O)CCN3CCOCC3)cc2CC1=O | -1.1 |
| COc1cccc(S(=O)(=O)N(C)C[C@H]2OCc3cnnn3CCCC(=O)N([C@H](C)CO)C[C@@H]2C)c1 | 0.0 |
| CCO[C@H]1OC(C(=O)N2CCOCC2)=C[C@@H](C)[C@@H]1CCCO | 0.5 |
| C[C@@H]1CN([C@@H](C)CO)C(=O)c2cccc(NS(=O)(=O)c3ccc(Cl)cc3)c2O[C@H]1CN(C)S(=O)(=O)c1cccs1 | -0.1 |
| C[C@@H]1CN([C@@H](C)CO)C(=O)c2cc(NS(C)(=O)=O)ccc2O[C@H]1CN(C)S(=O)(=O)c1ccc(F)cc1 | 0.3 |
| C[C@H]1CN([C@@H](C)CO)C(=O)c2cccc(NC(=O)c3cnccn3)c2O[C@H]1CN(C)Cc1ccc(Cl)c(Cl)c1 | -0.2 |
| C[C@H](CO)N1C[C@H](C)[C@@H](CN(C)Cc2ccc(Cl)c(Cl)c2)Oc2c(NC(=O)C3CC3)cccc2C1=O | -0.8 |
| C[C@H]1CN([C@@H](C)CO)C(=O)Cc2cc(NC(=O)Cn3cnnn3)ccc2O[C@H]1CN(C)C(=O)Nc1cccc2ccccc12 | 0.9 |

Back to the main list; the 2 compounds before the break are reprinted first.
SMILES	A1 apoptosis 2
C[C@H]1CN([C@@H](C)CO)C(=O)Cc2cc(NC(=O)Cn3cnnn3)ccc2O[C@H]1CN(C)C(=O)Nc1cccc2ccccc12	0.9
Cc1ccc(S(=O)(=O)N(C)C[C@@H]2Oc3ccc(NC(=O)c4ccncc4)cc3CC(=O)N([C@@H](C)CO)C[C@@H]2C)cc1	-0.4
C[C@@H]1CCCCO[C@@H](CN(C)C(=O)C2CCCCC2)[C@H](C)CN([C@H](C)CO)C(=O)c2cc(NC(=O)Nc3cccc4ccccc34)ccc2O1	1.0
C[C@H](CO)N1C[C@H](C)[C@H](CN(C)CC2CC2)OCCCC[C@H](C)Oc2ccc(NC(=O)Nc3cccc4ccccc34)cc2C1=O	0.1
C[C@@H]1CCCCO[C@H](CN(C)C(=O)NC2CCCCC2)[C@@H](C)CN([C@H](C)CO)C(=O)c2cc(NC(=O)Cc3ccccc3)ccc2O1	0.7
COc1ccc(NC(=O)N(C)C[C@H]2OCCCC[C@H](C)Oc3ccc(NC(=O)NC4CCCCC4)cc3C(=O)N([C@@H](C)CO)C[C@H]2C)cc1	0.0
C[C@H](CO)N1C[C@H](C)[C@H](CN(C)Cc2ccncc2)Oc2c(NC(=O)Nc3cccc4ccccc34)cccc2C1=O	-1.2
C[C@@H]1CN([C@H](C)CO)C(=O)c2cc(N(C)C)ccc2O[C@@H](C)CCCCO[C@@H]1CN(C)Cc1ccncc1	0.3
C[C@H]1CN([C@@H](C)CO)C(=O)c2cccc(NC(=O)Nc3ccccc3)c2O[C@@H]1CN(C)C(=O)Nc1ccc(F)cc1	0.2
C[C@@H]1CN([C@@H](C)CO)C(=O)Cc2cc(NC(=O)Cc3ccccc3)ccc2O[C@H]1CN(C)C(=O)Nc1ccc2c(c1)OCO2	-0.4
C[C@H]1CN([C@@H](C)CO)C(=O)c2cc(NS(=O)(=O)c3cn(C)cn3)ccc2O[C@H]1CN(C)Cc1ccccc1	-0.8
C[C@H]1CN([C@@H](C)CO)C(=O)c2cc(NC(=O)Nc3ccc(F)cc3)ccc2O[C@@H]1CN(C)C(=O)Nc1cccc2ccccc12	0.2
C[C@@H]1CN([C@H](C)CO)C(=O)c2cccc(NC(=O)c3ccncc3)c2O[C@@H]1CN(C)S(=O)(=O)c1ccc(Cl)cc1	-0.2
COC(=O)[C@@]1(Cc2ccccc2N=[N+]=[N-])N=C(c2ccc(OCCCO)cc2)O[C@H]1c1ccccc1CN=[N+]=[N-]	-1.0
CC(C)NC(=O)Nc1cccc2c1O[C@H](CN(C)C)[C@H](C)CN([C@H](C)CO)C2=O	-1.1
C[C@H](CO)N1C[C@H](C)[C@@H](CN(C)Cc2ccc(C(=O)Nc3ccccc3N)cc2)Oc2ccc(NS(=O)(=O)c3cccs3)cc2C1=O	1.0
COc1cccc(S(=O)(=O)N(C)C[C@@H]2OCc3cn(nn3)CCCC(=O)N([C@@H](C)CO)C[C@H]2C)c1	-0.2
Cc1noc(C)c1NC(=O)N(C)C[C@H]1Oc2ccc(NS(=O)(=O)c3cccs3)cc2CC(=O)N([C@@H](C)CO)C[C@H]1C	0.1
Cc1noc(C)c1NC(=O)N(C)C[C@H]1Oc2c(NS(=O)(=O)c3ccc(Cl)cc3)cccc2C(=O)N([C@H](C)CO)C[C@@H]1C	1.3
C[C@H](CO)N1C[C@H](C)[C@@H](CN(C)C(=O)Nc2ccc(C(F)(F)F)cc2)OCCCC[C@H](C)Oc2ccc(NC(=O)Nc3ccc(F)cc3)cc2C1=O	-0.7
Cc1noc(C)c1NC(=O)Nc1ccc2c(c1)C(=O)N([C@H](C)CO)C[C@@H](C)[C@@H](CN(C)Cc1ccc3c(c1)OCO3)OCCCC[C@@H](C)O2	0.5
C[C@@H]1CN([C@@H](C)CO)C(=O)c2cc(NC(=O)c3ccccc3)ccc2O[C@@H](C)CCCCO[C@@H]1CN(C)C(=O)C1CCCCC1	-0.3
COc1ccc(CN(C)C[C@H]2Oc3ccc(NC(=O)Nc4ccc5c(c4)OCO5)cc3CC(=O)N([C@@H](C)CO)C[C@H]2C)cc1	-0.8
COc1ccc(S(=O)(=O)Nc2cccc3c2O[C@H](CN(C)Cc2ccc4c(c2)OCO4)[C@H](C)CN([C@@H](C)CO)C3=O)cc1	0.8
C[C@@H]1CCCCO[C@H](CN(C)C(=O)c2ccccc2)[C@H](C)CN([C@@H](C)CO)C(=O)c2cc(NS(=O)(=O)c3ccccc3)ccc2O1	0.4
C[C@@H]1CN([C@@H](C)CO)C(=O)c2cccc(NS(=O)(=O)c3ccccc3)c2O[C@@H]1CN(C)S(=O)(=O)c1cccs1	1.7
COc1ccc(CN2CCC(C)=CC2C)cc1 (stereo unspecified)	2.0
C[C@@H]1CN([C@@H](C)CO)C(=O)c2cc(NC(=O)C3CCCCC3)ccc2O[C@@H]1CN(C)C	0.7
COc1ccc(NC(=O)N(C)C[C@@H]2Oc3ccc(NC(=O)Cc4ccccc4)cc3CC(=O)N([C@H](C)CO)C[C@H]2C)cc1	2.2
C[C@@H]1CCCCO[C@H](CN(C)C)[C@H](C)CN([C@H](C)CO)C(=O)c2cc(NC(=O)Cc3ccccc3)ccc2O1	0.9
C=CCOC(=O)C1=C[C@H](c2ccc(Br)cc2)[C@@H](CCCO)[C@H](OCC)O1	0.4
C[C@@H]1CN([C@@H](C)CO)C(=O)c2cc(NC(=O)Nc3ccc4c(c3)OCO4)ccc2O[C@@H](C)CCCCO[C@@H]1CN(C)C(=O)c1ccccc1	0.3
Cc1noc(C)c1NC(=O)Nc1ccc2c(c1)C(=O)N([C@@H](C)CO)C[C@H](C)[C@H](CN(C)C)OCCCC[C@H](C)O2	0.1
C[C@@H]1CN([C@H](C)CO)C(=O)CCCn2cc(nn2)CO[C@@H]1CN(C)Cc1cccc(C(=O)O)c1	0.0
C[C@H]1CN([C@@H](C)CO)C(=O)CCCn2nncc2CO[C@@H]1CN(C)Cc1ccc(O)cc1	0.2
C[C@@H]1CN([C@@H](C)CO)C(=O)Cc2cc(NS(=O)(=O)c3ccccc3)ccc2O[C@@H]1CN(C)Cc1ccccc1	0.8
C[C@@H]1CN([C@H](C)CO)C(=O)c2cc(NC(=O)Cc3cn(C)c4ccccc34)ccc2O[C@@H]1CN(C)Cc1ccc(C(=O)Nc2ccccc2N)cc1	-0.3
CCCN(C)C[C@H]1OCCCC[C@H](C)Oc2ccc(NC(=O)C3CCCCC3)cc2C(=O)N([C@H](C)CO)C[C@H]1C	0.8
COC(=O)CCCCCCC(=O)N/N=C/c1ccc(OC)cc1	0.2
C=CCNC(=O)[C@@H]1[C@H]2C(=O)O[C@H](c3ccccc3)[C@H](c3ccccc3)N2[C@H](c2ccc(OCCO)cc2)[C@@]12C(=O)Nc1ccc(C#CCC(C(=O)OC)C(=O)OC)cc12	0.2
Cc1ccc(S(=O)(=O)N(C)C[C@@H]2OCCCC[C@H](C)Oc3ccc(NS(=O)(=O)c4cccs4)cc3C(=O)N([C@H](C)CO)C[C@@H]2C)cc1	-0.7

Compound activity: PubChem BioAssay, Broad Institute
